ALR H2O2 inh: human ALR oxidase inhibition via reduced H2O2; P55789; purified ALR, DTT oxidation, H2O2 HRP-luminol luminescence; inhibition, % (no concentration beside the values); 290,000 tested, 3.8% active; AID 485317;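 active means mean and each replicate at 75% or more; inconclusive means only one of the two met; inactive means neither met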;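 further: stock transfer was 7.5 nL into about 7.5 µL; 0% = neutral wells and 100% = wells with inactivated enzyme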
Target sequence (P55789 whole entry, looked up): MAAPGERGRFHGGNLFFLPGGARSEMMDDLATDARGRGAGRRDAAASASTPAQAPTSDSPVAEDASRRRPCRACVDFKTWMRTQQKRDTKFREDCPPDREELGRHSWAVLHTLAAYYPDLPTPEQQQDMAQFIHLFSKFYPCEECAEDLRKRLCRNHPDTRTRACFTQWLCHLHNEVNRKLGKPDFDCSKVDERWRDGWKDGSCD
rRNA inh HTS: inhibitors of bacterial rRNA selective over humanized ribosomes. E. coli WT GFP vs humanized-ribosome RFP mutants, fluorescence, 24 h; stronger effect = lower value; DMSO median 0, no signal -100. GFP signal change (wild-type ribosome), % (concentration not given with the values). 350,000 tested, 1.6% active. AID 720706;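 active means significant combined selectivity score with lowered wild-type GFP, culture density cut under 30%, mutant RFP and density less affected; inactive means any of these conditions unmet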; further: one replicate is shown; some compounds called inactive have numbers as strong as hits
FGF22 binding: FGF22 (human) thermal shift binding; recombinant FGF22 thermal shift, SYPRO orange fluorescence; percent of sucrose octasulfate shift, DMSO zero; AID 651658; Q9HCT0; 340,000 tested, 1.5% active; calls only at 9.99 µM;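 active means melting point raised past a set limit in the mean and every replicate; inconclusive means no clear call; three in four hits are not shown here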
Target sequence (Q9HCT0 whole entry, looked up): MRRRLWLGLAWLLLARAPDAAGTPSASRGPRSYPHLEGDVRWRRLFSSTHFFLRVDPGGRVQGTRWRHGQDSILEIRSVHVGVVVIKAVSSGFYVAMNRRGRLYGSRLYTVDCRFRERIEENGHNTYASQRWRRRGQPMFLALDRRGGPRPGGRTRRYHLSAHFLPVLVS
Calb FLC: C. albicans growth modulation with fluconazole; C. albicans CaCi-2 (fluconazole-resistant clinical isolate) + fluconazole, Alamar Blue growth, 48 h; growth inhibition, % (no concentration beside the values); 300,000 tested, 0.57% active; AID 1979;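 active means most replicates above 75%; inconclusive means exactly half above 75%; inactive means most below 75%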;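 further: all wells also contain fluconazole at 8 µg/ml as a sub-toxic cotreatment; 0% = median of DMSO wells and 100% = median of geldanamycin control wells; wells of about 8 µL received 7.5 nL stock; the first replicate is given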
RanGTP-Imp inh: disruptors of Ran-importin-beta complex formation – biochemical, FRET, CFP-Ran, YFP-importin-beta, homogeneous, primary screen; cell-free CFP-Ran/YFP-importin-beta FRET ratio; inhibition, % (test concentration not listed); 300,000 tested, 1.1% active; AID 2216;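 active means most replicates above 15%; inconclusive means exactly half above 15%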;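 further: 0% = DMSO wells and 100% = Ran loaded with GDP instead of GTP; wells of about 40 µL received 100 nL stock; the first replicate is given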
Beta cell apopt: beta cell apoptosis inhibition | 300,000 tested, 0.8% active | INS-1E cytokine-induced death, ATP luminescence, 48 h; percent of positive-control rescue, neutral wells zero | protection from apoptosis, % (no concentration beside the values);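 active means all replicates at 75% or more, or half of them and the mean; inconclusive means half reach 75% but not the mean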;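 further: 0% = cytokine-treated negative control wells and 100% = positive control rescue; higher means more ATP so stronger rescue from cytokine killing; wells of about 40 µL received 100 nL stock; the first replicate is given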
AF4-AF9 inh: MLL-AF4/AF9 protein interaction inhibition; AlphaScreen, biotin-AF4 peptide binding to FLAG-AF9; inhibition, % at 10 µM; 350,000 tested, 0.47% active;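 active means every replicate reaching a set inhibition limit, whatever the replicate mean, cut at about 25% in these data; inconclusive means mean inhibition reaches that limit but some replicates miss it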;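 further: 0% = plate neutral control median and 100% = total signal loss; the record names both 10 and 1 µM as test concentration; the first replicate is given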
Target sequence (P42568 whole entry, looked up): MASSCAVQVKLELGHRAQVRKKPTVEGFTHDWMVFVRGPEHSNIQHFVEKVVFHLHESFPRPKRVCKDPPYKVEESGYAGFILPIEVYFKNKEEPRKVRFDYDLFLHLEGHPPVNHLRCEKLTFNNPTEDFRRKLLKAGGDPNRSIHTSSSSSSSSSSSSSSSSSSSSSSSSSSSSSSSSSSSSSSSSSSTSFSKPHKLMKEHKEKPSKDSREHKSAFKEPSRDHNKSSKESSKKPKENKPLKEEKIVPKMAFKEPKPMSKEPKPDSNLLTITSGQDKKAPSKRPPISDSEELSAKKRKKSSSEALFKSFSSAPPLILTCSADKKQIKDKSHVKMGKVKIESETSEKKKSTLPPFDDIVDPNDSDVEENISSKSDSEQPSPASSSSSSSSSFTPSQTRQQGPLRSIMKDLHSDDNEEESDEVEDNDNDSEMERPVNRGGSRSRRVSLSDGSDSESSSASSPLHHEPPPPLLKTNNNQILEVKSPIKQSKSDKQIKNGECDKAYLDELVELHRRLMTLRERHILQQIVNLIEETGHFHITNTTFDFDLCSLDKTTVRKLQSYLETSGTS
T cruzi inh: blocks replication of Trypanosoma cruzi | 300,000 tested, 1.4% active | T. cruzi beta-gal in NIH3T3, luminescence, 90 h | inhibition, % (test concentration not listed);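 active means mean inhibition across valid replicates above about 55%, limit read from the data; inconclusive means mean below that limit but half or more replicates reach it; inactive means mean below it, under half of replicates reach it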;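 further: signal also drops with host cell toxicity which is not excluded here; 0% = plate median of DMSO wells and 100% = zero luminescence signal; higher percent means less beta-gal luminescence so fewer parasites; stock transfer was 50 nL into about 50 µL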
rRNA inh HTS OD600: also measured in rRNA inh HTS; calls as there; OD600 change, %; measured here: OD600 growth;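 optical density of the mix in the first replicate; 0 = DMSO median and -100 = no signal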
rRNA inh HTS RFP: also measured in rRNA inh HTS; calls as there; RFP signal change, %; measured here: RFP humanized mutant strains;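 first replicate; 0 = DMSO median and -100 = no signal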
Numbers without * were called inactive; i = inactive; u = inconclusive; x = no result given. These rows are one share of the data, so the mix of outcomes need not match the whole.

Start of the data: the first 2 compounds as a preview:
SMILES	ALR H2O2 inh	rRNA inh HTS	rRNA inh HTS OD600	rRNA inh HTS RFP	FGF22 binding	Calb FLC	RanGTP-Imp inh	Beta cell apopt	AF4-AF9 inh	T cruzi inh
COc1ccc(CCNC(=O)CCCc2ccccc2)cc1OC	-6	3	2	0.7	i	-2	3.6	-2	-1.4	-3
CCc1cc(=O)oc2c(C)c(OCC(=O)N3CCCc4ccccc43)ccc12	-22	x	x	x	x	-3	-5.0	2	x	-1

Results, previewed entries included:
SMILES	ALR H2O2 inh	rRNA inh HTS	rRNA inh HTS OD600	rRNA inh HTS RFP	FGF22 binding	Calb FLC	RanGTP-Imp inh	Beta cell apopt	AF4-AF9 inh	T cruzi inh
COc1ccc(CCNC(=O)CCCc2ccccc2)cc1OC	-6	3	2	0.7	i	-2	3.6	-2	-1.4	-3
CCc1cc(=O)oc2c(C)c(OCC(=O)N3CCCc4ccccc43)ccc12	-22	x	x	x	x	-3	-5.0	2	x	-1
c1ccc(-c2ccccc2OCCOCCN2CCCCC2)cc1	1	x	x	x	x	-27	1.2	1	x	8
O=c1c2ccccc2oc2cc(NCCCn3ccnc3)ccc12	4	-7	-6	-5.4	i	-6	58*	0	-36	37
CCCCn1c(N)c(N(CC(C)C)C(=O)c2cccc(S(=O)(=O)N3CCCCC3)c2)c(=O)[nH]c1=O	-2	3	1	-1.2	i	12	5.9	5	-8.4	1
CCOc1ccccc1Nc1nnc(SCC(=O)Nc2ccc3[nH]c(=O)[nH]c3c2)s1	x	-3	-3	-4.5	i	4	-1.7	-1	-2.5	-7
Cc1cc(C(=O)NCC(=O)OCC(=O)Nc2ccc(OC(F)F)cc2)ccc1[N+](=O)[O-]	9	-22*	-1.1*	2.5*	i	-3	1.5	1	-45	-2
CC(NC(=O)CN(C)Cc1cccc(F)c1)c1ccccc1 (stereo not drawn)	-15	-2	4	2.2	i	-9	-2.0	-3	0.6	1
O=[N+]([O-])c1ccc(Cl)c(/C=N/Nc2nc(N3CCOCC3)nc(N3CCOCC3)n2)c1	-1	x	x	x	x	-5	2.7	-4	x	12
Cc1nc(CN(C)C(=O)CC2C(=O)NCCN2Cc2ccc(-c3ccccc3)cc2)cs1 (stereo not drawn)	-7	1	-16	1.9	i	-25	3.9	-8	1.2	17
O=C(Nc1nnc(SCc2ccc(Cl)cc2)s1)c1ccco1	-4	x	x	x	x	1	-6.1	-2	x	-16
Cc1cc(C(=O)N2CCCC2C(=O)O)c(C)o1 (stereo not drawn)	1	x	x	x	x	-10	-0.8	1	x	2
COc1ccc(/C=C2\SC(=O)N(CC(=O)NNC(=O)c3ccccc3O)C2=O)cc1	6	6	8	1.0	i	25	2.1	3	-15	-12
CCOc1ccc(N/C(N)=N/c2nc(CSc3nnnn3-c3ccccc3)cc(=O)[nH]2)cc1	-12	13	4	2.7	i	5	u	2	-3.5	-10
COc1ncnc2c1oc1nc(C)c3c(c12)CC(C)(C)OC3	3	2	-7	-4.1	i	0	-3.1	-1	-0.3	-10
O=C(O)c1ccc(S(=O)(=O)c2ccccc2C(=O)O)c([N+](=O)[O-])c1	-12	26	10	1.0	i	10	4.8	-5	2.6	-15
O=C(NC(=S)NCCN1CCOCC1)c1ccc(Cl)cc1	42	2	9	2.3	i	32	-1.7	-6	-3.0	-11
O=C(CN(CC1CCCO1)C(=O)CNS(=O)(=O)c1ccc(F)cc1)NCC1CCCO1 (stereo not drawn)	-4	0	16	2.6	i	1	0.9	1	1.7	6
O=C(O)c1cccc(Nc2ccncc2[N+](=O)[O-])c1	-2	0	10	-1.7	i	2	3.5	-5	-3.4	-11
CN(CCOC(=O)c1cccc(Br)c1)C(C)(C)C	-5	x	x	x	x	2	-3.5	-6	x	u
CCOC(=O)c1[nH]c2ccccc2c1N=CN(CC)CC	99*	x	x	x	x	1	0.9	-2	x	0
CC(C)C(=O)Nc1ccccc1-c1nc2ccccc2[nH]c1=O	-6	6	10	0.5	i	-12	-3.3	-2	1.9	0
Cc1ccc(-n2cc(CN3CCNC(=O)CC3)c(-c3ccc(F)cc3)n2)cc1	x	-5	0	30	i	1	-3.3	-12	13	21
O=C(Nc1ccncc1)C1CCN(S(=O)(=O)c2c(Cl)cccc2Cl)CC1	-1	-15	-16	3.6	i	-6	5.0	6	0.5	-4
CCCN(CC(=O)Nc1ccccc1OC)C(=O)C1=COCCO1	0	14	17	0.0	i	x	x	4	-1.3	x

Only rRNA inh HTS RFP and Beta cell apopt, for some of the entries so far:
structure | rRNA inh HTS RFP | Beta cell apopt
COc1ccc(CCNC(=O)CCCc2ccccc2)cc1OC | 0.7 | -2
O=[N+]([O-])c1ccc(Cl)c(/C=N/Nc2nc(N3CCOCC3)nc(N3CCOCC3)n2)c1 | x | -4
O=C(Nc1nnc(SCc2ccc(Cl)cc2)s1)c1ccco1 | x | -2

Single records, as listed above. Order of screens: ALR H2O2 inh, rRNA inh HTS, rRNA inh HTS OD600, rRNA inh HTS RFP, FGF22 binding, Calb FLC, RanGTP-Imp inh, Beta cell apopt, AF4-AF9 inh, T cruzi inh
Listed for `COc1ccc(/C=C2\SC(=O)N(CC(=O)NNC(=O)c3ccccc3O)C2=O)cc1` : 6, 6, 8, 1.0, i, 25, 2.1, 3, -15, -12
Listed for `Cc1cc(C(=O)N2CCCC2C(=O)O)c(C)o1` (stereo not drawn) : 1, x, x, x, x, -10, -0.8, 1, x, 2
Listed for `O=[N+]([O-])c1ccc(Cl)c(/C=N/Nc2nc(N3CCOCC3)nc(N3CCOCC3)n2)c1` : -1, x, x, x, x, -5, 2.7, -4, x, 12
Listed for `CCCN(CC(=O)Nc1ccccc1OC)C(=O)C1=COCCO1` : 0, 14, 17, 0.0, i, x, x, 4, -1.3, x
Listed for `CCOc1ccccc1Nc1nnc(SCC(=O)Nc2ccc3[nH]c(=O)[nH]c3c2)s1` : x, -3, -3, -4.5, i, 4, -1.7, -1, -2.5, -7

Following part
SMILES	ALR H2O2 inh	rRNA inh HTS	rRNA inh HTS OD600	rRNA inh HTS RFP	FGF22 binding	Calb FLC	RanGTP-Imp inh	Beta cell apopt	AF4-AF9 inh	T cruzi inh
N#Cc1c(-c2ccc(C(F)(F)F)cc2)cc(-c2ccccc2)[nH]c1=S	-1	8	3	-2.4	i	4	8.3	2	-15	-4
Cc1cccc(-n2ncc3c2CCCC3NC(=O)CCCN2CCCCC2=O)c1C (stereo not drawn)	-23	x	x	x	x	-3	-3.3	x	x	1
O=[N+]([O-])c1ccccc1CN1CCN(c2ncccn2)CC1	-5	-4	1	-6.2	i	9	-1.1	-3	0.9	-8
COc1ccc2[nH]cc(CCNC(=S)NC3CCCC3)c2c1	34	3	1	1.8	i	-3	-1.8	-2	5.6	-16
Cc1ccc(-c2noc(CSc3ccccc3)n2)cc1	-3	x	x	x	x	-28	2.0	0	x	-14
COC(=O)c1c(C)nc2c(c(SC)nn2-c2ccccc2)c1N	-15	x	x	x	x	-4	6.8	-6	x	33
O=C(Nc1ccc(F)cc1F)c1ccc(COc2c(F)c(F)cc(F)c2F)o1	-1	x	x	x	x	-1	0.7	-22	x	4
COc1ccc(C(=O)OCC(=O)Nc2ccc([N+](=O)[O-])cc2OC)c(O)c1	-5	5	3	1.3	i	-13	-1.5	9	-1.4	3
O=C(NCc1cccnc1)c1ccc(CN2CCc3ccccc3C2)cc1	-16	x	x	x	x	3	1.9	2	x	-21
COc1ccc(C(NC(=O)c2c(F)c(F)c(F)c(F)c2F)c2ccccc2)cc1 (stereo not drawn)	-15	x	x	x	i	0	u	3	-0.7	-10
COc1cc(/C=N/n2c(C3CCCCC3)n[nH]c2=S)cc(Br)c1O	83*	-5	-5	-4.6	i	0	1.2	3	-2.7	3
CC1=C(C#N)C(c2cccnc2)C2=C(N1)c1ccccc1C2=O (stereo not drawn)	-4	-27	-30	-5.9	i	7	-2.5	-1	5.7	0
COc1ccc(C(=O)Nc2ccc(S(=O)(=O)N3CCCCC3C)cc2)c(OC)c1OC (stereo not drawn)	0	x	x	x	x	5	1.6	x	x	3
COc1ccc(OC2C(=O)N(c3cc(C)ccc3C)C2c2ccc(OC)c(OC)c2)cc1 (stereo not drawn)	1	x	x	x	x	11	4.4	x	x	-3
CCN(CC(=O)Nc1ccc2c(c1)OCCO2)Cc1cc(=O)oc2cc(C)c(C)cc12	-9	x	x	x	x	6	-0.1	8	x	8
COc1cc(NC(=O)COC(=O)/C=C/c2ccccc2Cl)cc(OC)c1	-21	x	x	x	x	4	0.3	-7	x	-41
O=C(NCc1ccc(F)cc1)C(c1ccc(Cl)cc1)N(C(=O)c1csnn1)C1CC1 (stereo not drawn)	-6	-4	-20	-1.8	i	33	2.8	2	-1.6	-11
O=C(NCCN1CCOCC1)c1ccc(CS(=O)(=O)c2ccc(Br)cc2)o1	46	11	4	1.0	i	1	-1.9	-2	2.3	-5
CC1(C)Cc2cccc(OCC(=O)OCC(=O)NCc3ccccc3)c2O1	-4	1	-1	-2.8	i	-6	1.8	1	-3.1	-6
Cc1ccc2cccc(S(=O)(=O)n3nc(C)cc3C)c2n1	-6	x	x	x	x	-18	0.1	-3	x	-20
Cc1ccccc1N(C(=O)c1ccccn1)C(C(=O)NCc1ccccc1)c1cccnc1 (stereo not drawn)	-7	5	8	3.3	i	0	-1.4	1	-2.3	8
NCCCC[C@@H]1NC(=O)[C@H](CCC(=O)O)NC(=O)c2cc([N+](=O)[O-])cc(I)c2NCC[C@@H](C(N)=O)NC1=O	1	x	x	x	x	0	0.4	-3	x	-16
Cn1c(=O)[nH]c(=O)c2c1nc(SCC(O)CCl)n2Cc1ccccc1 (stereo not drawn)	0	5	-1	0.0	i	6	-3.9	5	-8.8	-5
Cc1c(NC(=O)Nc2cccs2)cccc1[N+](=O)[O-]	8	6	11	6.8	i	10	-4.9	4	0.5	6
CCCc1ncc(C[n+]2ccccc2C)c(N)n1	-14	0	6	1.8	i	x	x	-7	-0.8	x
COc1cc(C(C)=O)ccc1Oc1ncnc2c1cnn2-c1cccc(Cl)c1	0	16	22	4.7	i	0	4.9	0	-3.8	1
CCc1ccc(Nc2ncnc3nc[nH]c23)cc1	56	-12	8	5.5	i	23	-3.5	6	-23	-20

Fetched one by one from the entries so far:
SMILES	ALR H2O2 inh	rRNA inh HTS	rRNA inh HTS OD600	rRNA inh HTS RFP	FGF22 binding	Calb FLC	RanGTP-Imp inh	Beta cell apopt	AF4-AF9 inh	T cruzi inh
CCCCn1c(N)c(N(CC(C)C)C(=O)c2cccc(S(=O)(=O)N3CCCCC3)c2)c(=O)[nH]c1=O	-2	3	1	-1.2	i	12	5.9	5	-8.4	1
Cc1cc(C(=O)N2CCCC2C(=O)O)c(C)o1 (stereo not drawn)	1	x	x	x	x	-10	-0.8	1	x	2
CC(C)C(=O)Nc1ccccc1-c1nc2ccccc2[nH]c1=O	-6	6	10	0.5	i	-12	-3.3	-2	1.9	0
